HIV TAR-Tat = TAR RNA-Tat peptide displacers, HIV-1, primary screen, biochemical, FRET, FAM/TAMRA-labeled Tat; HIV-1 TAR RNA, Tat peptide displacement FRET; hits give high values; z-score (no concentration beside the values); 100,000 tested, 0.6% active; AID 1259389, 2018;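 further: score is relative to mean and SD of negative controls; some compounds called inactive have numbers as strong as hits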
CDC25B-CDK2 inh = primary biochemical HTRF screen for blockers of M-phase inducer phosphatase 2 binding to CDK2/cyclin A | AID 1259370, 2018 | z-score (no concentration beside the values) | HTRF CDC25B-CDK2/CyclinA binding, anti-His/anti-Flag; hits give high values | 94,000 tested, 0.72% active | P30305+P24941;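 further: score is relative to mean and SD of negative controls; strong numbers were not always called active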
Numbers without * were called inactive.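 How the source made its calls: active means z-score from 3 up in half or more of its runs; inactive means the rest.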

Results for COc1cn(CC(=O)NCC2CCCO2)c(CSc2ccc(Cl)cc2)cc1=O (stereo unspecified) ?
HIV TAR-Tat: 0

Results for CCOC(=O)C1=C(CC)NC2=C(C(=O)CCC2)C1c1cccnc1 (stereo unspecified) ?
HIV TAR-Tat: 1.11; CDC25B-CDK2 inh: 0.29

Results for Cc1ccc2ncc(C(=O)Nc3ccc4c(c3)OCO4)c(=O)n2c1 ?
HIV TAR-Tat: -1.35; CDC25B-CDK2 inh: -2.25

What do the screens show for `COc1ccccc1N1CCN(S(=O)(=O)c2cc(-c3noc(C4CC4)n3)cs2)CC1`?
HIV TAR-Tat: 0.69

How did CCOC(=O)C(=CNNC(=O)C1C2C=CC(C2)C1C(=O)O)C(=O)OCC (stereo unspecified) do in these assays?
CDC25B-CDK2 inh: -0.53

What do the screens show for `O=c1[nH]c(C2CCN(Cc3ccc(F)cc3)CC2)nc2c1nnn2Cc1ccc(F)cc1`?
HIV TAR-Tat: -0.25; CDC25B-CDK2 inh: 0.66

How did O=C(Nc1ccc2nsnc2c1)c1ccco1 do in these assays?
HIV TAR-Tat: -0.35; CDC25B-CDK2 inh: 1.69

What do the screens show for `Cc1nc2ccccc2n1Cc1nc2ccccc2n1C`?
HIV TAR-Tat: 2.12; CDC25B-CDK2 inh: -0.29

Results for CCOc1ccc(-n2c(=O)c3cc4c(=O)n(-c5ccc(OCC)cc5)c(=O)c4cc3c2=O)cc1 ?
CDC25B-CDK2 inh: -0.84

What do the screens show for `CN(C)CCCNc1oc(-c2ccc(F)cc2)nc1C#N`?
HIV TAR-Tat: 1.11; CDC25B-CDK2 inh: 0.45

Results for CCNC(=O)c1c(NC(=O)c2nc(SCC)ncc2Cl)sc2c1CCCC2 ?
HIV TAR-Tat: 2.12; CDC25B-CDK2 inh: -1.22

How did COc1ccc(-c2cc(C(F)(F)F)nc(S(C)(=O)=O)n2)cc1 do in these assays?
CDC25B-CDK2 inh: -1.98

What do the screens show for `COc1cccc(NC(=O)NCc2noc3ccccc23)c1`?
HIV TAR-Tat: -0.73

What do the screens show for `CC(=O)N1N=C(COc2ccc(Cl)c(C)c2)OC1c1cccs1` (stereo unspecified)?
HIV TAR-Tat: -0.47

How did COc1ccc(Nc2oc(/C=C/c3ccc(OC)c(OC)c3)nc2C#N)cc1 do in these assays?
HIV TAR-Tat: 0.27; CDC25B-CDK2 inh: -0.9

6 records drawn at random from those above:
Results for Cc1ccc2ncc(C(=O)Nc3ccc4c(c3)OCO4)c(=O)n2c1 ?
HIV TAR-Tat: -1.35; CDC25B-CDK2 inh: -2.25

How did CCOC(=O)C(=CNNC(=O)C1C2C=CC(C2)C1C(=O)O)C(=O)OCC (stereo unspecified) do in these assays?
CDC25B-CDK2 inh: -0.53

What do the screens show for `COc1ccccc1N1CCN(S(=O)(=O)c2cc(-c3noc(C4CC4)n3)cs2)CC1`?
HIV TAR-Tat: 0.69

Results for CCOc1ccc(-n2c(=O)c3cc4c(=O)n(-c5ccc(OCC)cc5)c(=O)c4cc3c2=O)cc1 ?
CDC25B-CDK2 inh: -0.84

How did COc1ccc(-c2cc(C(F)(F)F)nc(S(C)(=O)=O)n2)cc1 do in these assays?
CDC25B-CDK2 inh: -1.98

Results for CCOC(=O)C1=C(CC)NC2=C(C(=O)CCC2)C1c1cccnc1 (stereo unspecified) ?
HIV TAR-Tat: 1.11; CDC25B-CDK2 inh: 0.29

Later entries:
How did Cc1ccc(N2CCCS2(=O)=O)cc1NS(=O)(=O)c1ccc(Cl)cc1 do in these assays?
HIV TAR-Tat: 1.08

What do the screens show for `O=C(Cn1c(=O)oc2ccccc21)N(CCc1ccncc1)CC1CCCO1` (stereo unspecified)?
HIV TAR-Tat: 0.96

What do the screens show for `C=CCOc1cccc(C(Nc2cccc(C)n2)c2ccc3cccnc3c2O)c1` (stereo unspecified)?
HIV TAR-Tat: -0.09; CDC25B-CDK2 inh: 1.3

How did CC(C)OCCCNC(=O)c1nn(C)c2c1CCc1sccc1-2 do in these assays?
HIV TAR-Tat: 0.21

How did CCOc1ccc(NC(=O)CSc2nc(N)c3c4c(sc3n2)COC(C)(C)C4)cc1 do in these assays?
HIV TAR-Tat: 1.48; CDC25B-CDK2 inh: -2.46

How did O=C(COc1nsnc1N1CCOCC1)N1CCc2ccccc21 do in these assays?
HIV TAR-Tat: 0.65

Results for O=C(O)CCCC[C@@H]1CCSS1 ?
CDC25B-CDK2 inh: -1.83

Results for c1ccc(-c2cn3cccnc3n2)cc1 ?
HIV TAR-Tat: 0.22; CDC25B-CDK2 inh: -1.22

How did CC(C)N(Cc1ccccc1)C(=O)[C@H]1[C@@H]2C[C@@H]3[C@H]1C(=O)O[C@@H]3C2 do in these assays?
HIV TAR-Tat: 0.32; CDC25B-CDK2 inh: -0.75

What do the screens show for `Cc1sc2nc(C)n(/N=C/c3cccs3)c(=O)c2c1C`?
CDC25B-CDK2 inh: -0.3

What do the screens show for `O=C1c2ccccc2-c2onc3c(N4CCOCC4)cc(NCCN4CCCC4)c1c23`?
HIV TAR-Tat: -4.99; CDC25B-CDK2 inh: -1.78

Results for CCCNC(=O)c1cc2c(s1)CSC2 ?
CDC25B-CDK2 inh: -1.54

What do the screens show for `CC(CCc1ccco1)NC(=O)CCc1nnc2ccc(N3CCCCC3)nn12` (stereo unspecified)?
HIV TAR-Tat: 1.08

Results for Cc1ccnc(-n2c(C)c(C)c3c2ncn2nc(-c4ccccc4C)nc32)c1 ?
HIV TAR-Tat: 0.93; CDC25B-CDK2 inh: -4.17

How did Cn1c(CNCc2ccccc2)nc2ccccc21 do in these assays?
HIV TAR-Tat: 2.8; CDC25B-CDK2 inh: -1.2

Results for CC(C)COc1ccc(C2Nc3ccccc3S(=O)(=O)N2Cc2ccccc2)cc1 (stereo unspecified) ?
CDC25B-CDK2 inh: -0.47

Results for Cn1c(=O)c2c(ncn2CC(=O)Nc2ccc(F)c(Cl)c2)n(C)c1=O ?
HIV TAR-Tat: 1.64; CDC25B-CDK2 inh: -1.59

Results for COc1ccc2[nH]c(-c3ccccc3)nc(=S)c2c1 ?
HIV TAR-Tat: 0.38; CDC25B-CDK2 inh: -1.62

What do the screens show for `O=C(O)/C=C/C(=O)Nc1ccc(NC(=O)c2ccccc2O)cc1`?
CDC25B-CDK2 inh: -2.93

How did Cc1[nH]c(=S)[nH]c(=O)c1CCC(=O)O do in these assays?
CDC25B-CDK2 inh: -0.46

How did Cn1cnnc1SCC(=O)Nc1ccc(Cl)cc1F do in these assays?
CDC25B-CDK2 inh: 0.4

What do the screens show for `Cc1ccc(-c2onc(C)c2C)cc1S(=O)(=O)NC1CCCc2ccccc21` (stereo unspecified)?
HIV TAR-Tat: 1.52

What do the screens show for `Cn1c(=O)c(-c2nnc(NC(=O)c3cccs3)o2)nc2ccccc21`?
HIV TAR-Tat: 1.84

How did O=S(=O)(Nc1ccccn1)c1ccc(Oc2ccccc2)cc1 do in these assays?
HIV TAR-Tat: -1.46; CDC25B-CDK2 inh: 0.93

What do the screens show for `O=C(CCCn1c(=O)c2cccn2c2ccccc21)NCCCN1CCC(N2CCCCC2)CC1`?
HIV TAR-Tat: 1.49

Results for CC(=O)Oc1cccc2c1C(=O)c1c(OC(C)=O)cc(C(=O)O)cc1C2=O ?
HIV TAR-Tat: 0.36

How did C=CCSc1nn2c(=O)c(C)nnc2s1 do in these assays?
HIV TAR-Tat: 0.98

What do the screens show for `CSc1nc(N)n2nc(C3CC3)cc2n1`?
CDC25B-CDK2 inh: -1.51

What do the screens show for `COc1ccc(C2Nc3cc(C)c(C)cc3NC3=C2C(=O)CC(C)(C)C3)cc1` (stereo unspecified)?
HIV TAR-Tat: 0.15; CDC25B-CDK2 inh: 1.07

What do the screens show for `O=C1c2ccccc2C(Nc2ccc(Br)cc2)N1Cc1ccccc1` (stereo unspecified)?
HIV TAR-Tat: 1.31; CDC25B-CDK2 inh: -0.82

In the list so far, 3 contain an NH in an aromatic ring:
What do the screens show for `O=c1[nH]c(C2CCN(Cc3ccc(F)cc3)CC2)nc2c1nnn2Cc1ccc(F)cc1`?
HIV TAR-Tat: -0.25; CDC25B-CDK2 inh: 0.66

Results for COc1ccc2[nH]c(-c3ccccc3)nc(=S)c2c1 ?
HIV TAR-Tat: 0.38; CDC25B-CDK2 inh: -1.62

How did Cc1[nH]c(=S)[nH]c(=O)c1CCC(=O)O do in these assays?
CDC25B-CDK2 inh: -0.46

(listing goes on)
What do the screens show for `COC(=O)c1cc2sc(C)cc2[nH]1`?
HIV TAR-Tat: -0.04; CDC25B-CDK2 inh: -1.95

What do the screens show for `CCCn1c2ccccc2c2cnn(CC(=O)N3CCN(c4ccccn4)CC3)c(=O)c21`?
HIV TAR-Tat: -1.79

How did CC(C)NC(=O)Cn1cc2c(n1)CCCCCC2 do in these assays?
HIV TAR-Tat: 1.99; CDC25B-CDK2 inh: -1.79

What do the screens show for `CCCN1C(=O)C2C(C(=O)Nc3ccc(OCC)cc3)C3C=CC2(O3)C1C(=O)NC1CCCCC1` (stereo unspecified)?
HIV TAR-Tat: -0.16; CDC25B-CDK2 inh: 0.35

What do the screens show for `O=C(O)CSCC(=O)N1CCN(c2ncccn2)CC1`?
CDC25B-CDK2 inh: -0.38

What do the screens show for `O=C(c1noc2ncnc(N3CCCC3)c12)N1CCN(c2ccccc2)CC1`?
HIV TAR-Tat: 1.08

What do the screens show for `Cn1c(CN2CCNCC2)nc2cc(C(=O)N3CCCC3)ccc21`?
HIV TAR-Tat: 0.54

Results for O=C(NCc1ccc2c(c1)OCO2)C1CCN(c2nccc(C(F)(F)F)n2)CC1 ?
CDC25B-CDK2 inh: -1.47

Results for COCCn1c(N2CCN(CCO)CC2)nc2c1c(=O)[nH]c(=O)n2C ?
HIV TAR-Tat: 0.67; CDC25B-CDK2 inh: -0.91

How did CCCn1cc(NC(=O)C2=CC(c3cccs3)=NS(=O)(=O)N2C)cn1 do in these assays?
HIV TAR-Tat: 0.03; CDC25B-CDK2 inh: -0.47

What do the screens show for `[O-][n+]1onc2cc(Cl)ccc21`?
CDC25B-CDK2 inh: -1.33

How did CC(O)C(NC(=O)c1ccccc1)c1ccccc1 (stereo unspecified) do in these assays?
CDC25B-CDK2 inh: 0.11

How did CSc1cccc(N2CC(c3nc4ccccc4n3CCN3CCOCC3)CC2=O)c1 (stereo unspecified) do in these assays?
HIV TAR-Tat: 1.11; CDC25B-CDK2 inh: 0.45

Results for O=C(NCCN1CCCC1)C1CCN(c2ccccc2)C1=O (stereo unspecified) ?
HIV TAR-Tat: 0.43

Results for Cc1ccc(-c2c3c(nc4sc(C(N)=O)c(N)c24)CCC3)cc1 ?
HIV TAR-Tat: 0.48

3 structures from above, sorted by SMILES length, smallest number first.
What do the screens show for `[O-][n+]1onc2cc(Cl)ccc21`?
CDC25B-CDK2 inh: -1.33

How did CC(O)C(NC(=O)c1ccccc1)c1ccccc1 (stereo unspecified) do in these assays?
CDC25B-CDK2 inh: 0.11

What do the screens show for `CCCN1C(=O)C2C(C(=O)Nc3ccc(OCC)cc3)C3C=CC2(O3)C1C(=O)NC1CCCCC1` (stereo unspecified)?
HIV TAR-Tat: -0.16; CDC25B-CDK2 inh: 0.35

(next part)
Results for CC(=O)N1c2ccccc2CC1C(=O)NC(C)C (stereo unspecified) ?
HIV TAR-Tat: 1.58

How did CC(C)n1c(C2CC(=O)N(CC3CC3)C2)nc2ccccc21 (stereo unspecified) do in these assays?
HIV TAR-Tat: -0.59; CDC25B-CDK2 inh: 0.2

Results for COc1ccc(-c2noc(-c3nnn(-c4ccc(C)c(C)c4)c3C)n2)cc1 ?
HIV TAR-Tat: 0.59

Results for COc1ccc(-c2noc(-c3ccccc3)n2)cc1OC1CCCC1 ?
CDC25B-CDK2 inh: -1.69

What do the screens show for `O=[N+]([O-])C1=Cc2ccccc2OC1c1ccccc1Cl` (stereo unspecified)?
HIV TAR-Tat: -0.75; CDC25B-CDK2 inh: -1.08

What do the screens show for `CC1=C(C(=O)OC2CCCC2)C(c2ccc(Cl)cc2)CC(=O)N1` (stereo unspecified)?
HIV TAR-Tat: -1.86; CDC25B-CDK2 inh: -0.51

Results for Cc1cc(Nc2ccc(C)c(F)c2)n2nc(-c3ccccc3)nc2n1 ?
HIV TAR-Tat: -0.35

Results for CCN(CC)C(=O)CCc1nc(-c2ccc(C(C)(C)C)cc2)no1 ?
HIV TAR-Tat: 0.7; CDC25B-CDK2 inh: -0.54

What do the screens show for `CCc1nnc(SCC(=O)Nc2ccccc2F)c2cc3oc(C)cc3n12`?
HIV TAR-Tat: 2.21

Results for COc1ccc(C2SCC(=O)N2C)cc1 (stereo unspecified) ?
CDC25B-CDK2 inh: -0.35

How did O=C(NCCCN1CCCC1=O)c1cc2c(s1)-c1ccccc1OC2 do in these assays?
HIV TAR-Tat: -0.75; CDC25B-CDK2 inh: -1.33

What do the screens show for `C=Cc1ccc(CN2C(=O)N(Cc3ccc(OC)cc3)S(=O)(=O)c3ccccc32)cc1`?
HIV TAR-Tat: 1.49

What do the screens show for `NC(=O)c1nc(Nc2ccccc2)sc1NC(=O)CCC1CCCC1`?
HIV TAR-Tat: 0.04

What do the screens show for `C=CCN1C(=O)C2CCCCN2c2ccc(C(=O)NC3CCCCC3)cc21` (stereo unspecified)?
HIV TAR-Tat: 0.22

How did CCOCC(=O)Nc1c(C(=O)N2CCN(c3ccccn3)CC2)oc2ccccc12 do in these assays?
HIV TAR-Tat: -0.22

How did CCN(CC)C(=O)Cn1cc(SCC(=O)N2CCCCC2)c2ccccc21 do in these assays?
HIV TAR-Tat: -1.07

Results for COc1ccc(C2=C(C)C(=NCc3cccnc3)NS2(=O)=O)cc1 ?
HIV TAR-Tat: -1.08; CDC25B-CDK2 inh: -1.74

What do the screens show for `CCn1cc(CN(C)C(=O)CSc2nc(-c3ccco3)cc(C(F)(F)F)n2)c(C)n1`?
HIV TAR-Tat: 0.73; CDC25B-CDK2 inh: 0.84

Results for COc1ccc(NC(=O)c2c(NC(=O)COc3ccc(Cl)cc3)sc3c2CCC3)cc1 ?
HIV TAR-Tat: 2.08; CDC25B-CDK2 inh: -1.72

Results for CCOC(=O)c1sc2ccccc2c1S(=O)(=O)Nc1ccc(F)c(Cl)c1 ?
HIV TAR-Tat: -2.04

Screens deposited in PubChem BioAssay by Center for Chemical Genomics, University of Michigan.
